NPYLR7 agonist – agonists of mosquito NPYLR7 receptor, primary screen, cell-based, Aedes aegypti, calcium fluorescence, mosquito biting behavior; Aedes aegypti neuropeptide Y-like receptor 7 (NPYLR7); HEK293T NPYLR7/Galpha15, GCaMP6s calcium fluorescence; activation, % at 10 µM; actives 0.15% (n = 270,000); AID 1259423, 2018; in the data active means activation above about 40%;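 further: 0% = vehicle and 100% = reference agonist at the receptor; some compounds past the cut are filed as inactive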
NPYLR7 agonist max-min – also measured in NPYLR7 agonist; calls as there; activation, %; measured here: Max-Min RFU normalised activation; some inactives read as strong as hits;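 span of the calcium signal over five minutes; 0% = vehicle and 100% = native peptide agonist; compound fluorescence can raise it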
* hit, by the source's call; & = joins results of further samples. An excerpt; count on the stated rates, not on these rows.

SMILES | NPYLR7 agonist | NPYLR7 agonist max-min
C=CC(=O)NC(=O)NC12CC3CC(CC(C3)C1)C2 | 3.4 | -0.1
CC(C)(C)c1cc(N2CCOCC2)nc(SCc2ccc(C(=O)NCC3CCCO3)cc2)n1 (stereo unspecified) | 12.4 | 12.4
Cc1ccc(C(=O)Nc2c(C)nc3sccn3c2=O)cc1C | 11.1 | 3.4
CC(C)(C)OC(=O)N1C(C(=O)N2CCCC(O)C2)CSC1c1cccc(Br)c1 (stereo unspecified) | -5.7 | -13.4
Cc1cc(C)cc(NC(=O)CCc2ccc3c(c2)OCO3)c1 | 17.6 | 15.8
Cc1ccc(NC(=O)Nc2ccc(Nc3ccc(-n4ccc(C)n4)nn3)cc2)cc1 | -6.1 | -12.7
Clc1ccc(-c2ccc(SCc3cccnc3)nn2)cc1 | 1.9 | 0.7
COc1cc(OC)cc(C(=O)NCC2CCCN(C(=O)CCc3cnccn3)C2)c1 (stereo unspecified) | -7.2 | -8.3
CCCCN(CC(=O)Nc1c(-c2ccccc2)c(C)nn1-c1ccc(OC)cc1)C(=O)c1ccc(Br)cc1 | 14.3 | 17.1
CN(C)c1ccc(N)cc1CN(Cc1ccco1)C(=O)c1ccco1 | -7.3 | -5.2

A stretch from the list above, as a working copy:
SMILES | NPYLR7 agonist | NPYLR7 agonist max-min
Cc1ccc(C(=O)Nc2c(C)nc3sccn3c2=O)cc1C | 11.1 | 3.4
CC(C)(C)OC(=O)N1C(C(=O)N2CCCC(O)C2)CSC1c1cccc(Br)c1 (stereo unspecified) | -5.7 | -13.4
Cc1cc(C)cc(NC(=O)CCc2ccc3c(c2)OCO3)c1 | 17.6 | 15.8
Cc1ccc(NC(=O)Nc2ccc(Nc3ccc(-n4ccc(C)n4)nn3)cc2)cc1 | -6.1 | -12.7
Clc1ccc(-c2ccc(SCc3cccnc3)nn2)cc1 | 1.9 | 0.7

Remaining list, next part
SMILES | NPYLR7 agonist | NPYLR7 agonist max-min
CC(C)=C1SC(N2CCN(c3cccc(C)c3)CC2)=NC1=O | -6.9 | -8.9
CC(=O)Nc1ccc(S(=O)(=O)Oc2cccc(CN(C(=O)c3ccccc3Cl)C(C)C)c2)cc1 | 21.6 | 24.1
CCOC(=O)C1(CCc2ccccc2)CCN(C(=O)Nc2ccc(OC)c(Cl)c2)CC1 | 9.5 | 9.3
COc1ccc(-c2nc(-c3ccccc3)c(-c3ccccc3)n2CC(=O)N2CCCC(O)C2)cc1 (stereo unspecified) | 10.2 | 4.0
CCC(=O)N1CCC(NC(=O)CC2OCCc3ccccc32)C1 (stereo unspecified) | 6.4 | 1.6
CCN(CC)S(=O)(=O)c1ccc(OC)c(N2CCN(S(=O)(=O)c3ccc(Cl)c([N+](=O)[O-])c3)CC2)c1 | 8.8 | 3.8
CN(C)C(=O)c1cc2cc(NS(=O)(=O)NCc3ccccc3)ccc2s1 | 9.6 | 7.6
Cc1cc(C(=O)N2C3CCC4(CC3)OC(=O)N(C)CC24)c(C)o1 (stereo unspecified) | 25.8 | 29.0
COc1ccc(-n2c(CN3CCOCC3C)nc3ccccc32)cc1 (stereo unspecified) | -1.3 | 22.0
Cc1sc2ncnc(OCC(=O)N3CCCC3)c2c1C | -1.5 | 7.4
CC1(C)C(C#N)=C(SCC(N)=O)NC(=O)C1C#N (stereo unspecified) | 0.2 | -0.3
Cc1cccc2nc(C(=O)N3CCCC(O)(CO)CC3)cn12 (stereo unspecified) | 3.4 | 3.2
Cc1ccc2c(c1)CN(Cc1coc3ccc(C)cc3c1=O)CC(C)O2 (stereo unspecified) | 8.2 | 5.9
COC(=O)[C@@H]1C[C@H](NC(=O)c2cccc3c2OCCO3)CN1C | 0.0 | 5.0
COC(=O)c1ccc(COc2ccc(C3CC(c4ccc(F)cc4)=Nc4ncnn43)cc2)cc1 (stereo unspecified) | 15.8 | 8.1
CCOCCCn1c(SCC(=O)Nc2cc(F)ccc2C)nc2sc(C)c(C)c2c1=O | -3.8 | -8.7
CCOCCCN(CC(=O)N(Cc1cccn1Cc1ccccc1Cl)CC(C)C)C(=O)c1cc(OC)cc(OC)c1 | 11.1 | 19.2
CC(C)n1c(=O)c2oc3ccccc3c2n(Cc2ccc(F)cc2)c1=O | 24.0 | 29.0
CC(C)Oc1ccc2cc(C(=O)N3[C@@H]4CC[C@H]3CNC(=O)C4)c(=O)oc2c1 | 0.5 | -1.3
N#Cc1cccc(CSCC(=O)NCC(F)(F)F)c1 | 9.8 | 3.5
COCCn1c(=O)c2c(nc3n(-c4ccc(OC)c(Cl)c4)c(C)cn23)n(C)c1=O | 7.3 | 3.9
CCO/N=C1\CC(c2ccccc2)Cc2onc(C)c21 (stereo unspecified) | 3.7 | 4.2
COc1ccc(Cn2ccnc2CN(Cc2cccnc2)C(=O)c2ccccc2F)cc1 | -8.1 | 8.0
CC(C)(C)n1ncc2c(=O)n(NC(=O)Cc3cccc4ccccc34)cnc21 | 6.5 | 4.4
CCS(=O)(=O)N1CCC2(CCCN(CCc3ccccc3)C2)C1 (stereo unspecified) | 5.9 | 3.4
Cc1ccc(S(=O)(=O)N(Cc2nccn2Cc2c(C)cc(C)cc2C)C2CC2)cc1 | 7.9 | 8.7
Cc1ccccc1N1CCN(S(=O)(=O)C[C@]23CCC(CC2NC(=O)[C@@H](N)CCS(C)(=O)=O)C3(C)C)CC1 (stereo partly specified) | 3.4 | -34.0
O=C(Cc1ccc(F)cc1)N(Cc1cccnc1)c1nc2c(F)cccc2s1 | 1.9 | -0.2
Cc1ccc2nc(NCc3ccco3)c(C=C3SC(=S)N(Cc4ccccc4)C3=O)c(=O)n2c1 | -0.8 | 0.7
CNC(=O)C1Cc2ccccc2CN1Cn1nc(-c2ccco2)n(C)c1=S (stereo unspecified) | 4.7 | 3.5
CNC(=O)[C@@H]1C[C@H]2CN(CCOC)C(=O)c3cccc(c32)N1C(=O)c1ccc(C(F)(F)F)cc1 | 3.0 | 9.2
CC1=NC2=C(C(=O)CC(c3ccccc3)C2)C(c2ccc(Cl)cc2Cl)C1C#N (stereo unspecified) | -13.7 | -18.3
Cc1ccc(-c2nnc(C(C)N3CCN(c4ncccn4)CC3)o2)cc1 (stereo unspecified) | 1.9 | 1.4
CC(C)S(=O)(=O)c1ccccc1NC(=O)N1CCC2(CCC2)C1 | 2.7&-4.5 | 1.0&-3.8
CN(C)c1ccc(N)cc1CN(CC1CCCO1)C(=O)NC(C)(C)C (stereo unspecified) | -1.8 | -3.6
N#Cc1cccc(OC2CC3CCC(C2)N3C(=O)c2ccc(CSc3nnnn3-c3ccccc3)cc2)c1 (stereo unspecified) | 11.5 | -2.5
CCOC(=O)COc1cc2occ(-c3nnc(-c4ccccc4)s3)c(=O)c2cc1CC | 1.0 | -3.9
COCC(NC(=O)c1cn(-c2ccccc2)nn1)c1ccnn1C (stereo unspecified) | 0.2 | -2.2
CC(C)OCCS(=O)(=O)NC(C)(C)c1cccs1 | -0.1 | -2.6
CN(Cc1ccc2nonc2c1)C(=O)CN1CCOc2ccccc2C1 | 1.7 | -1.2
CCCCOC(=O)Nc1nnc(CC)s1 | 4.8 | 5.3
O=C(Cc1ccc(Br)cc1)NC1CCCC1 | 3.0 | 1.3
CN(C)CCNC(=O)[C@@]1(OCc2ccccc2F)CC(OCc2ccc(C#N)cc2)[C@H](O)[C@H](O)C1 (stereo partly specified) | 3.9 | 11.1
O=C(NCc1ccc(-n2cccn2)cc1)c1ccc2oc(Cc3ccccc3)nc2c1 | 14.4 | 1.4
CCn1c(C2CCN(C(=O)c3cc4c(nc3OC)CCC4)CC2)nn(C)c1=O | -5.1 | -13.8
C#CCOCC(O)CN(Cc1ccc2c(c1)OCO2)Cc1ccc(C)s1 (stereo unspecified) | 27.5 | 34.0
NC(=O)c1ccc(NC(=O)CSc2cn(CC(=O)N3CCOCC3)c3ccccc23)cc1 | -0.6 | -3.2
CCCc1nc(C(=O)N2CCO[C@@H]3CCCC[C@H]32)cs1 | 2.3 | -6.8
Cc1cccn2c(=O)cc(OCC(=O)c3ccc4c(c3)NC(=O)CO4)nc12 | -3.0 | 3.6
CCCCCCCC(=O)N1CCSC1c1cc(OC)cc(OC)c1 (stereo unspecified) | -4.4 | 2.9

Structural class, the entries above containing a CF3 group.
SMILES | NPYLR7 agonist | NPYLR7 agonist max-min
N#Cc1cccc(CSCC(=O)NCC(F)(F)F)c1 | 9.8 | 3.5
CNC(=O)[C@@H]1C[C@H]2CN(CCOC)C(=O)c3cccc(c32)N1C(=O)c1ccc(C(F)(F)F)cc1 | 3.0 | 9.2

Continuation.
SMILES | NPYLR7 agonist | NPYLR7 agonist max-min
Cc1ccc(COc2ccc(Cl)cc2CNc2nn[nH]n2)cc1 | -12.5 | -16.1
CC1(C(=O)Nc2ccc3c(c2)OCCO3)CCN1C(=O)c1ccccc1CCc1ccccc1 (stereo unspecified) | 8.0 | 5.0
O=C(NCCn1ncc2ccccc2c1=O)c1coc2c1C(=O)CCC2 | -0.5 | 3.9
Cc1ccc(-c2ocnc2C(=O)N(C)C2CCS(=O)(=O)CC2)cc1 | 7.8 | 3.2
Cc1cc(C)nc(SCc2cn3cccnc3n2)n1 | -1.7 | -0.3
Cc1ccc(NC(=O)CC(=O)NC(C(=O)N(C)C)c2ccccc2)cc1 (stereo unspecified) | 0.9 | -4.0
O=C(c1ccc2c(c1)OCCCO2)N1CCN(S(=O)(=O)c2ccccc2C(F)(F)F)CC1 | 0.6 | 6.8
COc1cc(NC(=O)C2CC(=O)N(c3ccccc3Cl)C2)cc(OC)c1OC (stereo unspecified) | 0.1 | 3.9
O=C(C1CCN(Cc2ccco2)CC1)N1CCC(O)(c2ccccc2)C1 (stereo unspecified) | 6.1 | 2.2
Cc1ccc(OCCN(C)C(=O)c2cccc(C#CC(C)(C)O)c2)c(C)c1 | -10.1 | -12.1
CC(C)(C)c1ccc2oc(=O)n(C3CCN(C(=O)C4CCCC4)CC3)c2c1 | 17.1 | 18.3
COCCNC(=O)c1c(NC(=O)c2ccc(Cl)cc2)sc2c1CCCC2 | -1.1 | -4.4
CN(Cc1ccccc1)c1ncccc1CNC(=O)CC1CNCCO1 (stereo unspecified) | -4.2 | -8.5
Cc1sc(NC(=O)c2ccccc2F)c(CN2CCCCC2C)c1C (stereo unspecified) | 10.0 | 14.1
COc1ccc2c(c1)C=C(CNCc1cccnc1N1CCN(C(C)=O)CC1)CO2 | 2.9 | 1.9
CSc1ccc(COc2coc(CN3CCCN(S(=O)(=O)c4ccccc4C(F)(F)F)CC3)cc2=O)cc1 | 22.4 | 11.9
CCCc1cc(=O)[nH]c(N=C(N)Nc2ccc3c(c2)OCCO3)n1 | 0.2 | 1.2
Nc1ncc(C(=O)N2CCCC(N)CC2)c(-c2ccccc2)n1 (stereo unspecified) | 1.2 | -2.0
COC(=O)c1sccc1NS(=O)(=O)c1ccc(OC)c([N+](=O)[O-])c1 | 5.4 | 8.5
Nc1nnnn1N=Cc1ccc(-c2ccc3c(c2)COC3=O)o1 | -1.0 | -9.8
O=C1CN(Cc2ccccc2)C(=O)C1c1ccccc1 (stereo unspecified) | -1.0 | -5.8
C=CCNC(=O)c1ccc(OC2CCN(CCc3ccccc3)CC2)cc1 | -5.8 | -7.2
Cc1nn(CC(=O)O)c(=N)s1 | 0.0 | -5.0
CCN(CC)c1onc(-c2ccc(F)cc2)c1CN(Cc1ccc2c(c1)OCO2)CC(O)COCc1ccco1 (stereo unspecified) | -3.4 | 0.9
NC(=O)C1CN(c2nc(C3CC3)nc3sc4c(c23)CCCC4)CCO1 (stereo unspecified) | 7.3 | 4.3
CC1CCN(Cc2nnnn2CCCC(=O)NC(C)c2cnn(-c3ccccc3)c2)CC1 (stereo unspecified) | 1.6 | -1.9
COC(=O)CCCc1nc(Cn2ccc(=O)c3ccccc32)no1 | 10.5 | 7.9
CCN(CCN1C(=O)C(C)SC1c1ccc(F)cc1F)C(=O)c1cccs1 (stereo unspecified) | 0.1 | 2.5
CCCN(CC(=O)N(Cc1cccn1Cc1ccccc1Cl)C1CCCCC1)C(=O)c1ccc(OC)cc1 | -7.7 | 2.1
COc1ccc2[nH]c3c(c2c1)CCN(C(=O)CCCOc1ccccc1)C3c1ccc(-c2ccccc2C(F)(F)F)o1 (stereo unspecified) | 20.5 | 8.8
CC(=O)c1sc(=Nc2c(C)cccc2C)n(CCO)c1C | -0.9 | -5.5
S=c1n(CN2CCCC2)nc(C2COc3ccccc3O2)n1-c1ccccc1 (stereo unspecified) | 24.5&1.2 | 6.6&64.6
Cc1nc2c(=O)n(Cc3ccc(F)cc3)nc(-c3ccccc3)c2s1 | -0.8 | -1.6
CC1Oc2ccc(OC(F)(F)F)cc2N(c2ccc(C(F)(F)F)cc2)C1=O (stereo unspecified) | 7.3 | 6.2
COC(=O)[C@@H]1C[C@H](NC(=O)CCN2CCCCO2)CN1C | -2.9 | 8.2
N#Cc1c(N)sc(C(=O)O)c1CSc1ccc2c(c1)OCCO2 | 6.3 | 6.4
Cc1ccccc1-n1nc(C)c(CNC(=O)c2cccnc2Oc2ccccc2)c1C | -8.9 | -14.0
N#CCSc1nc2c(-c3ccccc3)c[nH]c2c(=O)n1-c1ccccc1 | -1.8 | -4.3
CN(C)S(=O)(=O)c1ccccc1CNC(=O)CCCn1cncn1 | 1.6 | 0.5
CCc1ccc(S(=O)(=O)Nc2cc(-c3ccco3)nn2C2CCS(=O)(=O)C2)cc1 (stereo unspecified) | 0.8 | -1.2
Cc1cc(C(=O)CSc2nnc(Cc3cccs3)n2C2CC2)c(C)n1C(C)C | 5.9 | 5.1
Cc1ccc(N2C(=O)CC(NCc3ccc4c(c3)OCO4)C2=O)cc1 (stereo unspecified) | -8.4 | -11.6
Cc1nc(NC2CCCCC2)c2c3c(sc2n1)CCC3 | 28.4&0.9 | 12.8&6.5
CNc1ncc(CN(C)C(=O)c2cc(COc3ccccc3)[nH]n2)cn1 | 0.1 | -5.0

Compound activity (PubChem)
